Bioassay records as filed in PubChem.
VDR inhibitor: inhibitors of human vitamin D receptor; P11473; VDR-SRC2-3 peptide fluorescence polarization, 2 h; Potency, µM, for the others: max response, negative = inhibition, actives largely listed as inhibitors; hit rate 0.93% among 400,000; active means well fitted inhibition curve with a large enough effect; inconclusive means small, poorly fitted or top-dose-only effect, or another doubt; inactive means no such curve, though single readings can be large or run the other way; further: series mostly up to about 120 µM
Target sequence (P11473 whole entry, looked up): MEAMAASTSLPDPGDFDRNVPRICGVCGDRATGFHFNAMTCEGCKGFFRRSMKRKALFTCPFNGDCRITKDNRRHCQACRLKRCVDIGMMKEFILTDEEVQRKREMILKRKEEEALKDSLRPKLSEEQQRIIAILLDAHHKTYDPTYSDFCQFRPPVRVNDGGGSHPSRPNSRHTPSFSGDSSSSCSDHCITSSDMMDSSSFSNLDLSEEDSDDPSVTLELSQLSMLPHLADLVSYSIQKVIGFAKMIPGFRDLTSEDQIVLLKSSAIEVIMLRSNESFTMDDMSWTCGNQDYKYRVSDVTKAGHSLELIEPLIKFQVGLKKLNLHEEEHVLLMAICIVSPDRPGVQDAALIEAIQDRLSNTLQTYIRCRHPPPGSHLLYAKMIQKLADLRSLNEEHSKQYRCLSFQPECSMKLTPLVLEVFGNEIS
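The screen uses fluorescence polarization to detect compounds that interfere with recruitment of the SRC2-3 coactivator peptide to VDR; plates are read after 2 h at room temperature.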
* hit, by the source's call. On the % scale 0 is the no-effect control and ±100 the full control effect; potency means the concentration at half of the fitted maximal effect.

Results for CCOc1ccc(-c2nc(Cn3c(=O)cc(C)c4c(C)nn(-c5ccc(C)cc5)c43)c(C)o2)cc1 ?
VDR inhibitor: 6.5%

How did O=C1CC[C@H](C(=O)O)N1 do in these assays?
VDR inhibitor: -0.2%

Results for CCOC(=O)C(=O)c1cn(C2OCC(OC(C)=O)C(OC(C)=O)C2OC(C)=O)c2ccccc12 (stereo unspecified) ?
VDR inhibitor: 13.7%

How did CC[C@H](C)[C@H](N)C(=O)N[C@H](C(=O)N[C@@H](CO)C(=O)N[C@@H](C)C(=O)N[C@H](C(=O)N[C@H](C(=O)NCC(=O)N[C@H](C(=O)N[C@@H](CC(C)C)C(=O)O)[C@@H](C)CC)C(C)C)C(C)C)[C@@H](C)CC do in these assays?
VDR inhibitor: 1.8%

Results for CCCn1c(C(O)c2ccc(C)cc2)nc2ccccc21 (stereo unspecified) ?
VDR inhibitor: -6.8%

Results for CCCCNC(=O)c1onc(CSc2ccccc2C)c1C(=O)O ?
VDR inhibitor: -18.7%

Results for CCc1ccc(OCC(=O)NCc2ccco2)c(Br)c1 ?
VDR inhibitor: -6.0%

Results for O=C(NC1CCCCCC1)c1ccc(Cl)c(S(=O)(=O)N2CCOCC2)c1 ?
VDR inhibitor: 8.7%

What do the screens show for `CCCN(Cc1ccccc1)C(=S)Nc1ccc(OC(F)F)cc1`?
VDR inhibitor: -9.5%

Results for O=C(Nc1cc(C(=O)Nc2ccccc2C(=O)O)cc(C(=O)Nc2ccccc2C(=O)O)c1)c1ccccc1 ?
VDR inhibitor: inconclusive

How did O=C(Nc1nc(=S)ss1)c1c(F)cccc1F do in these assays?
VDR inhibitor: 5.8%

How did Cc1ccc(CNC(=O)CN2C(=O)C3(SCC(=O)N3c3ccc(F)cc3)c3ccccc32)cc1 (stereo unspecified) do in these assays?
VDR inhibitor: -6.9%

Brought forward from above: 2 entries; new compounds follow.
How did O=C(Nc1nc(=S)ss1)c1c(F)cccc1F do in these assays?
VDR inhibitor: 5.8%

How did Cc1ccc(CNC(=O)CN2C(=O)C3(SCC(=O)N3c3ccc(F)cc3)c3ccccc32)cc1 (stereo unspecified) do in these assays?
VDR inhibitor: -6.9%

What do the screens show for `Nc1cc(=O)[nH]c(SCC(=O)c2ccc(F)cc2)n1`?
VDR inhibitor: 2.8%

What do the screens show for `O=C(O)c1cccc(S(=O)(=O)Nc2ccc3oc(=O)sc3c2)c1`?
VDR inhibitor: 89.1µM*

Results for COc1ccc2c(=O)c3c(=O)n(Cc4ccco4)c(-c4cc(OC)c(OC)c(OC)c4)nc3oc2c1 ?
VDR inhibitor: -11.5%

How did CC(C)CNC(=O)COC(=O)c1ccc(F)cc1Cl do in these assays?
VDR inhibitor: -7.4%

Results for COc1ccc(CCn2c(-c3ccc(Cl)cc3)n[nH]c2=S)cc1OC ?
VDR inhibitor: -6.5%

What do the screens show for `O=C(CCNc1ccc(F)cc1)c1cc2ccccc2o1`?
VDR inhibitor: inconclusive

How did CCCCn1c(=O)[nH]c(=O)c2c1ncn2Cc1ccco1 do in these assays?
VDR inhibitor: -4.3%

Results for O=C(NNC(=S)Nc1ccc(Br)cc1)c1ccc(N2CCOCC2)c([N+](=O)[O-])c1 ?
VDR inhibitor: -6.2%

How did Nc1c(C(=O)CSc2nnc(Nc3ccc(F)cc3)s2)c(=O)[nH]c(=O)n1C1CC1 do in these assays?
VDR inhibitor: -4.6%

What do the screens show for `COC(=O)c1ccc(Oc2cc(C)nc(Cl)n2)cc1`?
VDR inhibitor: 2.9%

What do the screens show for `COCc1[nH]c(=S)c(C#N)cc1C(=O)OC`?
VDR inhibitor: inconclusive

How did COc1ccc(-c2n[nH]c(=S)n2-c2ccc(C)cc2)cc1OC do in these assays?
VDR inhibitor: 20.9%

What do the screens show for `CCOC(=O)c1c(-c2ccc(C)cc2)csc1NC(=O)c1cc(-c2ccc(Cl)cc2)on1`?
VDR inhibitor: 0.8%

What do the screens show for `O=C(COc1ccc(Cl)cc1)Nc1ccccc1C(=O)NCc1cccnc1`?
VDR inhibitor: 16.3%

Results for CCc1sc(/C=C(/C#N)C(N)=S)cc1[N+](=O)[O-] ?
VDR inhibitor: inconclusive

How did CC(C)OC(=O)[C@@H]1CC[C@H](C)[C@@H](CCCC=O)O1 do in these assays?
VDR inhibitor: 2.9%

What do the screens show for `COC(=O)c1ccccc1S(=O)(=O)N1CCC(C(=O)OC(C)C(=O)Nc2ccccc2OC)CC1` (stereo unspecified)?
VDR inhibitor: -10.6%

What do the screens show for `CC1=C(C(=O)OCC2CCCO2)C(c2cccc(C(F)(F)F)c2)C2=C(CC(c3ccco3)CC2=O)N1` (stereo unspecified)?
VDR inhibitor: 4.1%

How did COc1ccccc1NS(=O)(=O)c1cccc(C(=O)NN=C2CCCCCC2)c1 do in these assays?
VDR inhibitor: -20.8%

How did CN(C(=O)c1cccc(NC(=O)Cc2ccc(NC(=O)C3CCCN(C(=O)c4ccccc4)C3)cc2)c1)C1CCCCC1 (stereo unspecified) do in these assays?
VDR inhibitor: 1.0%

How did Cc1ccc(-c2csc3ncnc(N4CCc5ccccc5C4)c23)cc1 do in these assays?
VDR inhibitor: -15.2%

How did COC(=O)CCC(=O)NNC(=O)CCCOc1ccc(Cl)cc1Cl do in these assays?
VDR inhibitor: -2.6%

What do the screens show for `O=C(CSc1nnc(NC(=O)c2ccco2)s1)NCc1ccc2c(c1)OCO2`?
VDR inhibitor: -17.2%

How did O=C(Cn1nnc2ccccc2c1=O)NCC1CCC(C(=O)O)CC1 (stereo unspecified) do in these assays?
VDR inhibitor: -9.7%

What do the screens show for `N#Cc1ccccc1NC(=O)CSc1n[nH]c(-c2ccco2)n1`?
VDR inhibitor: -19.0%

Results for NS(=O)(=O)c1ccc(CCNC(=O)CC(c2ccccc2)c2ccccc2)cc1 ?
VDR inhibitor: 3.8%

How did CCc1nc(N)c(C#N)c(-c2ccc(O)c(OC)c2)c1C do in these assays?
VDR inhibitor: -3.9%

What do the screens show for `CCCN(CC(=O)Nc1ccccc1C)C(=O)CC(NC(=O)c1ccccc1)c1ccccc1` (stereo unspecified)?
VDR inhibitor: -16.1%

What do the screens show for `C=CCn1c(SC(C)C(=O)NC2(C#N)CCCCC2)nnc1-c1ccc(OC)cc1` (stereo unspecified)?
VDR inhibitor: 6.0%

What do the screens show for `Cc1nc2c(c(=O)n1CCC1=CCCCC1)c1nc3ccccc3nc1n2/N=C/c1ccco1`?
VDR inhibitor: -5.7%

Results for Cc1ccc(C(=O)/C=C/c2ccc(-c3ccccc3[N+](=O)[O-])o2)cc1 ?
VDR inhibitor: -4.9%

Results for COCCNC(=O)c1ccc2c(=O)n(Cc3ccco3)c(SCC(=O)NC3CCCCC3)nc2c1 ?
VDR inhibitor: 1.5%

Results for NS(=O)(=O)c1ccc(NC(=O)CN2CCN(S(=O)(=O)/C=C/c3ccccc3)CC2)cc1 ?
VDR inhibitor: -16.4%

What do the screens show for `COc1ccc(CCNC2CC(C)N(C)CC2C)cc1OC` (stereo unspecified)?
VDR inhibitor: -2.7%

How did Cc1ccc(S(=O)(=O)N(C)Cc2ccc(C(=O)N/N=C3\CC(=O)CC(C)(C)C3)cc2)cc1 do in these assays?
VDR inhibitor: -5.9%

Results for Cc1ccc(S(=O)(=O)N(C)c2ccc(C(=O)Nc3cccnc3)cc2)cc1 ?
VDR inhibitor: 6.6%

Compounds from the list above with a thiophene ring, fused or not:
What do the screens show for `CCOC(=O)c1c(-c2ccc(C)cc2)csc1NC(=O)c1cc(-c2ccc(Cl)cc2)on1`?
VDR inhibitor: 0.8%

Results for CCc1sc(/C=C(/C#N)C(N)=S)cc1[N+](=O)[O-] ?
VDR inhibitor: inconclusive

How did Cc1ccc(-c2csc3ncnc(N4CCc5ccccc5C4)c23)cc1 do in these assays?
VDR inhibitor: -15.2%

(continued)
Results for CCCCn1c(N)c(N(CC(C)C)C(=O)c2oc3ccc(OC)cc3c2C)c(=O)[nH]c1=O ?
VDR inhibitor: -10.5%

Results for CCOc1ccc(NCc2nnc(SCc3ccccc3Cl)n2-c2ccccc2)cc1 ?
VDR inhibitor: -20.2%

What do the screens show for `CCOC(=O)Cn1ncn(-c2ccc(OC(F)(F)F)cc2)c1=O`?
VDR inhibitor: -9.5%

What do the screens show for `O=c1nc2cccc3c2=c(/c1=C(\O)c1ccccc1)c1ccccc1c3=O`?
VDR inhibitor: 0.4%

What do the screens show for `Cc1cccc(NC(=O)c2sc3nc4c(c(-c5cccs5)c3c2N)CN(C)CC4)c1`?
VDR inhibitor: inconclusive

What do the screens show for `CCOC(=O)C1(CCOc2ccccc2)CCN(Cc2ccc(OCC)c(CO)c2)CC1`?
VDR inhibitor: 4.3%

What do the screens show for `Cc1ccccc1OCCn1c(=S)[nH]c2ccccc21`?
VDR inhibitor: -0.1%

Results for COc1cccc(OC)c1C(=O)NCCc1sc(-c2cccc(F)c2)nc1C ?
VDR inhibitor: 13.7%

Results for Cn1c(CN2CCCCC2)nc2cc(NS(=O)(=O)c3ccc(F)cc3)ccc21 ?
VDR inhibitor: -11.4%

How did Cc1cc(NC(=O)CN2CCC(C)CC2)nc2c1c(=O)oc1ccccc12 do in these assays?
VDR inhibitor: -21.7%

How did COc1cc(CN(C(=O)c2cccs2)C2CCS(=O)(=O)C2)cc(OC)c1OC (stereo unspecified) do in these assays?
VDR inhibitor: 25.0%

How did CCOC(=O)C1CCN(S(=O)(=O)c2ccc(-c3cc(C(F)(F)F)n(C)n3)s2)CC1 do in these assays?
VDR inhibitor: -19.5%

Results for Cc1c(C(=O)N2CCCC2)oc2c1-c1nn(CC(=O)NCc3cccc(Br)c3)cc1CC2 ?
VDR inhibitor: 6.2%

How did CC1CC(C)CN(CCCNS(=O)(=O)c2ccc3c(c2)oc(=O)n3C)C1 (stereo unspecified) do in these assays?
VDR inhibitor: -15.1%

How did Cc1nc2ccn(Cc3ccco3)c(=O)c2cc1C(=O)N1CCN(c2ccccc2F)CC1 do in these assays?
VDR inhibitor: -1.3%

How did Oc1ccc(C2=NNC(c3ccc(O)cc3)=NN2)cc1 do in these assays?
VDR inhibitor: -8.1%

Results for Cc1ccc(S(=O)(=O)NCC(c2ccc(N(C)C)cc2)N2CCOCC2)cc1 (stereo unspecified) ?
VDR inhibitor: 5.0%

How did Cc1ccc(CNc2cnccn2)cc1 do in these assays?
VDR inhibitor: -1.1%

What do the screens show for `Cc1c(Cl)cccc1NC(=O)CCS(=O)(=O)c1ccc2c(c1)oc(=O)n2C`?
VDR inhibitor: 5.8%

What do the screens show for `CCOc1ccc(S(=O)(=O)N2CCOCC2)cc1NC(=O)C1=COCCO1`?
VDR inhibitor: 3.7%

Results for COc1ccc(C)cc1NC(=O)CN1C(=O)c2cccc3cccc1c23 ?
VDR inhibitor: 22.4%

What do the screens show for `O=S1(=O)CCN(Cc2ccccn2)CC1`?
VDR inhibitor: -11.4%

How did COc1ccc(SCC(=O)Nc2ccc(N3CCN(C)CC3)c(F)c2)cc1 do in these assays?
VDR inhibitor: 3.9%

How did CC(C)Nc1ccc(C(CC(N)=O)NC(=O)c2ccc(Br)cc2)cc1[N+](=O)[O-] (stereo unspecified) do in these assays?
VDR inhibitor: -10.0%

What do the screens show for `COc1ccc(C(=O)NC(=O)COC(=O)C2COc3ccccc3O2)cc1` (stereo unspecified)?
VDR inhibitor: -3.3%

Results for Cc1ccc(C(=O)c2oc3ccccc3c2NC(=O)c2cc(-c3ccccc3)on2)cc1F ?
VDR inhibitor: 6.1%

What do the screens show for `Cc1ccc(C)c(N2CCN(C(=O)CCc3nc(-c4cccc(Cl)c4)no3)CC2)c1`?
VDR inhibitor: -2.1%

Results for Cc1cccc(N2CCN(C(=O)CCC(=O)N3CCOc4ccc(Cl)cc43)CC2C)c1 (stereo unspecified) ?
VDR inhibitor: -16.9%

What do the screens show for `COc1ccc(S(=O)(=O)c2c[nH]c(=S)[nH]c2=O)cc1Cl`?
VDR inhibitor: -8.1%

What do the screens show for `COCCCNC(=S)NNC(=O)c1cc(Cl)c(O)c(Cl)c1`?
VDR inhibitor: 13.0%

How did CC1(C)CC(=O)N(CC(=O)NCc2ccc(F)cc2)c2ccccc2S1(=O)=O do in these assays?
VDR inhibitor: -10.2%

How did N#Cc1ccc(OCC(=O)NNC(=S)NC2CCCCC2)cc1 do in these assays?
VDR inhibitor: -13.5%

How did O=[N+]([O-])c1cccc(COc2cccc(CN3CCCCC3)c2)c1 do in these assays?
VDR inhibitor: -15.3%

How did Cc1ccccc1-n1nnnc1SC(C)C(=O)NC1CCCc2ccccc21 (stereo unspecified) do in these assays?
VDR inhibitor: -8.5%

How did CCCCNC(=O)c1ccc2c(SCC(=O)O)c3c(nc2c1)CCCC3 do in these assays?
VDR inhibitor: -2.1%

What do the screens show for `O=C(OCCN1CCCCC1)c1cccc(Cl)c1`?
VDR inhibitor: -17.7%

What do the screens show for `CCOC(=O)c1ccc2c(c1)N(CC)C(=O)c1ccccc1S2`?
VDR inhibitor: 2.7%

How did CCN(C[C@H]1N[C@@](Cc2ccccc2)(C(=O)OC)[C@H]2C(=O)N(C)C(=O)[C@@H]12)C(=O)COC do in these assays?
VDR inhibitor: -1.7%

What do the screens show for `CSc1ccc(S(=O)(=O)NCC(=O)OCC(=O)N2CC(C)CC(C)C2)cc1[N+](=O)[O-]` (stereo unspecified)?
VDR inhibitor: 1.0%

Results for O=C1NC(c2ccc(Cl)c([N+](=O)[O-])c2)Nc2ccccc21 (stereo unspecified) ?
VDR inhibitor: -21.6%

Results for CCCN1CCN(C(=O)C2CCN(S(=O)(=O)c3c(C)noc3/C=C/c3ccc(C)cc3)CC2)CC1 ?
VDR inhibitor: -8.7%

What do the screens show for `CC(NC(=O)c1ccc(Br)o1)C1CCCO1` (stereo unspecified)?
VDR inhibitor: 0.7%

How did O=C(NCCCN1CCCC1=O)c1ccc2c(=O)n(-c3ccccc3F)c(=S)[nH]c2c1 do in these assays?
VDR inhibitor: 1.0%

Fetched one by one from the list above, 3 records:
How did CCN(C[C@H]1N[C@@](Cc2ccccc2)(C(=O)OC)[C@H]2C(=O)N(C)C(=O)[C@@H]12)C(=O)COC do in these assays?
VDR inhibitor: -1.7%

What do the screens show for `CC(NC(=O)c1ccc(Br)o1)C1CCCO1` (stereo unspecified)?
VDR inhibitor: 0.7%

What do the screens show for `CCOC(=O)c1ccc2c(c1)N(CC)C(=O)c1ccccc1S2`?
VDR inhibitor: 2.7%

Only part of the results is shown; count on the stated rates, not on these rows.
